Screening data deposited in PubChem by National Center for Advancing Translational Sciences (NCATS).
Rango dissoc inh = inhibitors of RanGTP-induced Rango-importin beta complex dissociation. AID 540253. Potency, µM (series often up to 46.1 µM), for inactives: top-dose activity change, negative = inhibition. Biochemical FRET Rango-importin beta, RanGTP-induced dissociation. O95149+P62826. 340,000 compounds, 0.071% hits; active means falling FRET ratio curve, often poorly fitted, with flat reads before Ran was added; inconclusive means other falling curves, or compound fluorescence or quenching; inactive means flat or rising ratio curve;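 also: potency is read from the fitted curve at half-maximal effect; % of control where 0% means no effect; nearly all actives have a fitted effect of over 45% in size; -100% = wells without RanGTP and RCC1; the record marks most hits as doubtful in a second field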
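Compounds sat 5 min at room temperature with 0.1 uM Rango biosensor plus 0.25 uM importin beta, then FRET pre-read. RanGTP-RCC1 (0.6 uM Ran, 2mM GTP, 0.2 uM RCC1) added for 45 min, and the CFP/YFP post-read measured blocked complex dissociation.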
GLA inh pH 4.5 = inhibitors of human alpha-galactosidase A at pH 4.5 | 230,000 tested, under 10 active | purified enzyme, 4-MU-alpha-Gal fluorescence, pH 4.5 | P06280 | activity change, negative = inhibition, % at 105 µM; inconclusive = small, poorly fitted or top-dose-only inhibition, or a rising curve; inactive = flat fitted curve, though single readings scatter; no compound was filed as active;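 also: 0% = full activity with enzyme and -100% = basal without enzyme; dose as in the result columns while the protocol names 77 µM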
Target sequence (P06280 whole entry, looked up): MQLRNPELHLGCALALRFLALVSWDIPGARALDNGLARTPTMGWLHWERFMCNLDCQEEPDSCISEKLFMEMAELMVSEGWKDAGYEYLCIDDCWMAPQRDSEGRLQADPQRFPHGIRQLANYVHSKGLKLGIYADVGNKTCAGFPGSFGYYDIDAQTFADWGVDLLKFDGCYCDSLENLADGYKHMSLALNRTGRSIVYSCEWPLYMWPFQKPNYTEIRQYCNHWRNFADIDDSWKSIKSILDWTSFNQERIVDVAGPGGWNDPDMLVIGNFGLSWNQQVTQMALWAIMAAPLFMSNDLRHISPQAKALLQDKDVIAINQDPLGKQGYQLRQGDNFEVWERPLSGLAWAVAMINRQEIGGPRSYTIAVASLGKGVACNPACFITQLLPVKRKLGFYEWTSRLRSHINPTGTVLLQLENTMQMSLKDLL
miR-21 reporter = miR-21 reporter, rising signal. HeLa miR-21 FLuc reporter, luciferase, 48 h. Potency, µM (doses to about 38.3 µM), for the others: top-dose reporter change, positive = more light. 340,000 tested, under 10 active. AID 2288; active = well fitted rising curve with a large enough effect; inconclusive = small, poorly fitted or top-dose-only effect; inactive = no such curve, though single readings can be large or run the other way;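 also: % of control where 0% means no effect; miR-21 action dims this reporter so a rising signal means less miR-21 action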
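Compounds were titrated across several concentrations (up to approximately 40 uM) and incubated 48 hours with HeLa miR-21-FLuc reporter cells (miR-21 target sequence downstream of FLuc, endogenous miR-21). Readout was firefly luciferase luminescence after lytic detection reagent.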
Rango-impB inh = prevents formation of the Rango-importin beta complex | Q14974 | Rango CFP/YFP FRET sensor + importin beta, 45 min | Potency, µM (doses to about 92.2 µM), inactives show at the top dose inhibition of complex formation | 340,000 compounds, 0.031% hits; active = rising FRET ratio curve, often small or poorly fitted; inconclusive = mostly compound fluorescence or quenching in the first reads; inactive = flat curves in all reads;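 also: potency is read from the fitted curve at half-maximal effect; 0% = DMSO wells and 100% = buffer wells lacking importin beta; nearly all actives have a fitted effect of over 15% in size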
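FRET biosensor Rango (snurportin 1 IBB between N-terminal EYFP and C-terminal Cerulean), 50 nM in PBS/1 mM DTT/0.02% Tween-20/0.1% BSA, preincubated 5 min RT with compound; 0.125 microM importin beta added, 45 min RT, CFP/YFP FRET ratio read.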
The depositor's hits bear a star; u = inconclusive; x = not tested or not shown; & = joins results of further samples. The list is partial; the hit share may differ from the screen's.

SMILES	Rango dissoc inh	GLA inh pH 4.5	miR-21 reporter	Rango-impB inh
CCOC(=O)c1cc(-c2ccco2)nc2c1c(C)nn2CCC#N	-11%	9	0%	0.9%
O=C(Nc1cccnc1)c1sc2cccc(F)c2c1Cl	-12%	-12	-22%	0.3%
Cc1cc(C)c2nc(-c3ccccn3)cc(C(=O)NCc3ccc(S(N)(=O)=O)cc3)c2c1	3%	-10	-1%	0.0%
CC(Cc1cccnc1)NC(=O)CCc1nnc(-c2ccccc2)o1 (centres undefined)	-13%	-15	-9%	0.0%
C=C(C)c1cccc(C(C)(C)NC(=O)Nc2ccc(C)cn2)c1	8%	1	-19%	4.3%
Cn1c(N)cc(=O)[nH]c1=S	-12%	x	x	0.7%
CCOC(=O)C1(CCOc2ccccc2)CCN(Cc2nccn2CC)CC1	-1%	4	-2%	2.4%
COCC(=O)Nc1ccc([N+](=O)[O-])cc1C	-10%	-7	0%	0.2%
Cc1cc2ncn(/N=C/c3cccnc3)c2cc1C	-3%	-1	-42%	-1.9%
CCOC(=O)C1(Cc2ccccc2)C(=O)Nc2ccccc21 (centres undefined)	0%	x	x	-1.2%
Cc1ccc(NCN2C(=O)C3CC=CCC3C2=O)cc1 (centres undefined)	20%	2	-3%	1.7%
Cc1nc(-c2ccccn2)sc1C(=O)Nc1ccc(F)cc1	-11%	2	-16%	-3.0%
CC(=O)c1ccc(NC(=O)COC(=O)C2CCN(S(=O)(=O)c3cccs3)CC2)cc1	15%	x	x	-0.4%
COc1ccc(CN2CCNC(=O)C2CC(=O)NCCC2=CCCCC2)c(F)c1 (centres undefined)	-16%	x	-4%	0.2%
Oc1ccc(/C=N/NC(=S)Nc2cccnc2)c(O)c1O	-1%	0	0%	u
COc1ccccc1NC(=O)CCSc1nc(C)cs1	-5%	x	-16%	0.0%
CCOC(=O)C1=C(COC(=O)/C=C/c2cccc(Br)c2)NC(=O)NC1C (centres undefined)	17%	x	x	-2.5%
Nc1cc2c(cc1C(=O)c1cccc(Br)c1)OCCO2	37%	-7	18%	-1.2%
Cc1ccc(C(=O)NNC(=O)C(NC(=O)c2cccc(C)c2)C(C)C)cc1 (centres undefined)	-14%	x	x	0.0%
Cc1ccc(C)c(NC(=O)C(OC(=O)c2cnc(C)cn2)c2ccccc2)c1 (centres undefined)	14%	x	x	-1.6%
COc1ccc(C(=O)Nc2c3c(nn2-c2cccc(Cl)c2)CS(=O)C3)cc1 (centres undefined)	18%	3	-6%	1.3%
COc1ccc(CCNC(=O)c2cc(-c3ccco3)on2)cc1OC	4%	0	-42%	-0.3%
Cc1ccc(C(=O)NCC(=O)NCc2ccc(Cl)cc2)s1	1%	x	x	5.2%
CC1(C)C[C@H]2C3=CCC4[C@@]5(C)CC[C@H](O)[C@@](C)(CO)C5CC[C@@]4(C)[C@]3(C)C[C@@H](O)[C@@]2(CO)[C@@H](O)[C@@H]1O (some centres undefined)	-27%	x	x	-0.8%
Cc1ccc2[nH]c3c(=O)n(CCC4=CCCCC4)cnc3c2c1	2%	-26	-1%	4.1%
New compounds follow
SMILES	Rango dissoc inh	GLA inh pH 4.5	miR-21 reporter	Rango-impB inh
COc1ccc(CN(C2CCCCC2C)S(=O)(=O)c2ccc(S(=O)(=O)N(C)C)cc2)cc1OC (centres undefined)	9%	1	-7%	0.4%
CC1CCCN(C(=O)C2CC(=O)N(c3ccc(Cl)cc3)C2)C1 (centres undefined)	2%	x	-2%	-1.1%
C=CCNC(=O)c1ccc(Cn2c(=S)[nH]c3cc4c(cc3c2=O)OCO4)cc1	1%	2	-20%	-1.7%
O=C(NCc1ccccc1)C(c1ccco1)N(C(=O)c1csnn1)C1CC1 (centres undefined)	-13%	x	-1%	u
COc1cc(-c2cc(-c3ccc(F)cc3)nc(N)c2C#N)ccc1O	18%	-2	5%	0.3%
COC(=O)c1c(-c2ccsc2)oc2ccc(-c3cc(OC)c(OC)c(OC)c3)cc12	-13%	x	x	2.1%
CCOC(=O)N1CCC(N2CCCC(CO)(Cc3cccc(OC)c3)C2)CC1 (centres undefined)	-13%	-19	-2%	u
COc1ccc(CCN(C)CCC(=O)Nc2c(C)cc(C)cc2C)cc1OC	5%	7	3%	0.0%
C=C(NS(=O)(=O)c1ccc(C)cc1)C(=O)OC	-1%	x	x	-1.3%
COc1cc(C(=O)Nc2ccc3ccccc3c2)cc(OC)c1OC	1%	x	1%	-0.2%
O=C(Nc1nc2c(F)cccc2s1)C1CC1	-10%	x	-18%	2.6%
Cc1ccc(C2/C(=C(\O)c3cnn(-c4ccccc4)c3C)C(=O)C(=O)N2CCN(C)C)o1 (centres undefined)	-4%	x	-49%	-1.7%
COc1cc(/C=C/C(=O)OCC(=O)Nc2ccc3c(c2)OCCO3)ccc1OCC#N	15%	0	17%	2.6%
COC(=O)c1ccc(C2/C(=C(\O)c3ccc4c(c3)OCCO4)C(=O)C(=O)N2CCCN2CCOCC2)cc1 (centres undefined)	8%	x	1%	-3.3%
O=C(Nc1cccc([N+](=O)[O-])c1)C1CC(=O)N(Cc2ccccc2)C1 (centres undefined)	26%	2	-3%	-2.1%
CN(CC1CCOCC1)C(=O)c1ccc2nc(Cc3cccc(Cl)c3)oc2c1	8%	x	1%	-2.7%
Cc1ccnn1CCSCC(=O)O	-3%	4	-4%	u
CS(=O)(=O)Nc1ccc(C(=O)N2CCCC2)cc1	2%	1	2%	0.2%
CC(C)c1cc(CN2CCN(CCC#N)CC2)cc(C(C)C)c1O	3%	-16	-1%	-0.6%
O=C(NC(=S)N(CCO)Cc1ccccc1)c1cc(Br)ccc1Cl	-9%	-3	2%	0.9%
Cc1cc(C(C#N)c2ccccc2F)n2ncnc2n1 (centres undefined)	-5%	-8	1%	3.0%
CCN(CC)CCCN(Cc1cc2cc3c(cc2[nH]c1=O)OCO3)C(=S)NCCCOC	0%	x	-7%	3.8%
CCN(CC)C(=O)N1c2ccccc2Sc2ccccc21	-12%	x	16%	2.1%
O=C(Nc1ccccc1)c1cccc(N2C(=O)C3C4C=CC(C4)C3C2=O)c1 (centres undefined)	8%	x	-5%	-0.1%
CC(C)NS(=O)(=O)c1ccc(CCC(=O)Nc2cc(Cl)ccc2Oc2ccccc2)cc1	2%	-2	22%	-0.1%

Whole records, quoted from the list:
O=C(Nc1cccc([N+](=O)[O-])c1)C1CC(=O)N(Cc2ccccc2)C1 (centres undefined) in the list: Rango dissoc inh: 26%; GLA inh pH 4.5: 2; miR-21 reporter: -3%; Rango-impB inh: -2.1%
COC(=O)c1c(-c2ccsc2)oc2ccc(-c3cc(OC)c(OC)c(OC)c3)cc12 in the list: Rango dissoc inh: -13%; GLA inh pH 4.5: x; miR-21 reporter: x; Rango-impB inh: 2.1%

(next part)
SMILES	Rango dissoc inh	GLA inh pH 4.5	miR-21 reporter	Rango-impB inh
Cc1cccc(N=C2NC(=O)c3cc([N+](=O)[O-])ccc32)c1	2%	-4	-2%	-0.2%
C=CCn1c(C)cc(C(=O)CSc2nnc(NCc3ccccc3)s2)c1C	-12%	x	2%	-1.7%
CCOC(=O)C1CCN(C(=O)COC(=O)c2ccc(Br)o2)CC1	2%	1	-3%	0.3%
COc1cccc(C(C)NC(=O)Nc2cccc(C(F)(F)F)c2)c1 (centres undefined)	-11%	-3	29%	0.1%
COc1cc2cc(CN(Cc3ccc4c(c3)OCO4)C(=O)c3ccco3)c(=O)[nH]c2cc1OC	7%	x	x	3.8%
Cn1c(SCC(=O)NC2CC2)nnc1-c1ccc(Cl)cc1	0%	x	x	-0.2%
COC(=O)c1ccc([C@H](NC(=O)c2ccco2)[C@]2(C)C[C@H]2C2CCCCC2)cc1	0%	x	x	0.0%
CCOC(=O)c1c(C)noc1CP(=O)(c1ccccc1)c1ccccc1	0%	-10	-1%	-0.2%
CCCCCCN(C(=O)CCCCCN1C(=O)NC(c2ccc(-c3ccccc3)cc2)C(C(=O)OCc2ccccc2)=C1C)C(C(=O)NCCCC)c1ccccc1 (centres undefined)	x	-1&-3	1%	x
CN(CC(=O)N1CCCCCC1)S(=O)(=O)c1ccc(F)cc1	-4%	-1	-36%	-0.8%
COC(=O)c1cccc(CSc2nnc(C)s2)c1	8%	1	-45%	-2.7%
CCCCCc1ccc(-c2ccc(OCC)cc2)nc1	0%	5	-31%	2.2%
CCOc1ccc(Br)cc1S(=O)(=O)Nc1cccc(S(=O)(=O)N2CCOCC2)c1	6%	x	x	0.8%
COc1cc(/C=C/C(=O)OCC(=O)NC(=O)NC2CCCC2)ccc1OCC#N	-1%	x	x	u
O=C(NCCCN1CCOCC1)c1ccc2nc(Cc3cccc(Cl)c3)oc2c1	-7%	x	-2%	0.2%
COc1cc(Cl)c(C)cc1NC(=O)CSc1ccccc1	21%	1	-13%	0.9%
CC(=O)N1CCN(Cc2nc3cc(Cl)ccc3c(=O)[nH]2)CC1	-24%	11	0%	u
Cc1nc2sc(C(c3cccc(F)c3)N3CCCC(C)C3)c(O)n2n1 (centres undefined)	-19%	5	1%	u
CCOC(=O)CSc1nc(N)nc(C)c1Cl	-1%	-7	2%	-2.7%
CSc1ccccc1NC(=O)Cn1c([N+](=O)[O-])cnc1C	-1%	x	0%	4.0%
CC(C)C[C@H](NC(=O)[C@@H]1O[C@H]1C(=O)O)C(=O)NCCCCN=C(N)N	-8%	5	-2%	-0.8%
CN(C(=S)NC(=O)/C=C/c1ccc(F)cc1)C1CCCCC1	-1%	-2	-21%	-0.3%
Nc1ncc(Br)cc1S(=O)(=O)NCCC(=O)N1CCN(c2ccccn2)CC1	-18%	-5	5%	0.1%
c1ccc(N(c2ccccc2)c2nc(N3CCOCC3)nc(N3CCOCC3)n2)cc1	x	0	-1%	x
COc1cccc(/C=C2\SC(=S)N(C(C(=O)O)c3ccccc3)C2=O)c1OC (centres undefined)	-4%	-9	-2%	4.5%
New compounds follow
SMILES	Rango dissoc inh	GLA inh pH 4.5	miR-21 reporter	Rango-impB inh
CCc1noc(C)c1C(=O)Nc1ccc(C(F)(F)F)cc1	u	x	-2%	u
Nc1nc2c(ncn2C2CCCC2)c(=O)[nH]1	13%	x	x	13%
CN(Cc1ccco1)C(=O)C1CCC(=O)N(CCc2cccc(F)c2)C1 (centres undefined)	3%	x	-3%	-1.0%
COc1ccc(Nc2nc(N)nc(CSc3nnc(N)s3)n2)cc1	-14%	-7	-38%	13%
O=C(Nc1cccc(Cl)c1)c1cccc(N2C(=O)C3CC=CCC3C2=O)c1 (centres undefined)	-2%	x	-7%	4.2%
Oc1ccc(NCc2cccc(OCc3ccc(F)cc3)c2)cc1	12%	2	-21%	-0.8%
CCC(CO)Oc1cc(NCc2ccc(OC)cc2)c2ncn(C(C)C)c2c1 (centres undefined)	0%	x	x	0.4%
CCS(=O)(=O)N1CCC(C(=O)NCc2cccc(OC)c2)CC1	u	6	-3%	5.9%
COc1cccc(N2CCN(C(=O)CCC(=O)c3ccc(Cl)s3)CC2)c1	-6%	x	x	0.7%
O=C(CC(O)(c1ccccc1)C(F)(F)C(F)F)c1cccs1 (centres undefined)	15%	3	-7%	u

An excerpt from the list above, for reference:
SMILES	Rango dissoc inh	GLA inh pH 4.5	miR-21 reporter	Rango-impB inh
CCc1noc(C)c1C(=O)Nc1ccc(C(F)(F)F)cc1	u	x	-2%	u
Nc1nc2c(ncn2C2CCCC2)c(=O)[nH]1	13%	x	x	13%
CN(Cc1ccco1)C(=O)C1CCC(=O)N(CCc2cccc(F)c2)C1 (centres undefined)	3%	x	-3%	-1.0%
COc1ccc(Nc2nc(N)nc(CSc3nnc(N)s3)n2)cc1	-14%	-7	-38%	13%
O=C(Nc1cccc(Cl)c1)c1cccc(N2C(=O)C3CC=CCC3C2=O)c1 (centres undefined)	-2%	x	-7%	4.2%
Oc1ccc(NCc2cccc(OCc3ccc(F)cc3)c2)cc1	12%	2	-21%	-0.8%
